Bioassay records as filed in PubChem.
HPGD block: qHTS Assay for Inhibitors of HPGD (15-Hydroxyprostaglandin Dehydrogenase) | 15-hydroxyprostaglandin dehydrogenase [NAD(+)] (Homo sapiens), P15428 | purified HPGD, NADH fluorescence kinetic, PGE2 substrate | Potency, µM, inactives show at the highest dose activity change, negative = inhibition, usual class: inhibitors | hit rate 4.3% among 150,000; active = well fitted inhibition curve with a large enough effect (not every such curve was filed as active); inconclusive = small, poorly fitted or top-dose-only effect, or another doubt; inactive = no such curve, though single readings can be large or run the other way;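 further: top concentration of the series not given in the record; plate controls included wells without enzyme; inactives centre near -10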
Target sequence (P15428 whole entry, looked up): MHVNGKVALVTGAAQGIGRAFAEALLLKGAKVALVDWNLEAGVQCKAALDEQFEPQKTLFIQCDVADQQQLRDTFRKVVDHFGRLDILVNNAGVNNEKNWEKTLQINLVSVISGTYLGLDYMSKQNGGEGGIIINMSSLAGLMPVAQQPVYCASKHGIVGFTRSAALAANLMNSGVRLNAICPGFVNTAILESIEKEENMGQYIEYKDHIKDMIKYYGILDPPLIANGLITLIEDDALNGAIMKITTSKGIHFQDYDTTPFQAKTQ
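NADH formation kinetics: reaction with 30 uM PGE2 and 1 mM NAD+ (final), 20 nM enzyme, Tris-HCl pH 8 with Tween 20, after 15 min compound preincubation at room temperature. Fluorescence change, last versus first of five reads.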
An asterisk follows results filed as active; ? = inconclusive; & = joins results of further samples. On the % scale 0 is the no-effect control and ±100 the full control effect; potency means the concentration at half of the fitted maximal effect.

structure | HPGD block
N#Cc1cc([N+](=O)[O-])ccc1Oc1cccc(/C=N/NC(=O)c2cccc(Cl)c2)c1 | -10.7%
CCCOc1cc(C)c(S(=O)(=O)N2CCN(C)CC2)cc1C | -6.2%
CCOc1cc(C2NN=C(c3ccccc3)S2)ccc1OCc1ccccc1Cl (centres undefined) | ?
Cc1sc2ncnc(SCC(=O)N3CCC(c4noc5ccc(F)cc45)CC3)c2c1C | -15.6%
CC(C)CCNc1ncnc2c1nnn2Cc1ccccc1Cl | -10.8%
O=C(CC1Nc2ccccc2NC1=O)c1ccccc1 (centres undefined) | ?
COc1ccc(C2Nc3ccccc3C(=O)N2c2ccc(F)cc2)cc1Cn1nnc2ccccc21 (centres undefined) | ?
C(=C\c1nc(-c2ccccc2)oc1Nc1ccc2ccccc2c1)/c1ccccc1 | -6.6%
CCOC(=O)c1cc(OC(=O)c2cccc([N+](=O)[O-])c2)n(-c2ccccc2)n1 | -10.8%
COC(=O)c1cc(C(=O)OC)n(Cc2ccc(Cl)cc2Cl)n1 | -11.8%
N#CC1=C(SCC(=O)NCc2ccccc2)NC(=O)CC1c1ccco1 (centres undefined) | -9.8%
CCCc1nc(N)c(C#N)c(N)c1C#N | 2.4%
O=C(Cn1nc(CNc2ccc(Cl)cc2)[n+]2c1CCCCC2)c1ccc(Br)cc1 | -4.7%
Cc1cccc(C)c1NC(=O)C(NC(=O)CN1C(=O)c2ccccc2C1=O)c1ccccc1 (centres undefined) | -15.2%
CCOc1ccc2[nH]c(O)c(NC(C)=O)c2c1 | -2.0%

6 consecutive records already listed, quoted:
structure | HPGD block
N#Cc1cc([N+](=O)[O-])ccc1Oc1cccc(/C=N/NC(=O)c2cccc(Cl)c2)c1 | -10.7%
CCCOc1cc(C)c(S(=O)(=O)N2CCN(C)CC2)cc1C | -6.2%
CCOc1cc(C2NN=C(c3ccccc3)S2)ccc1OCc1ccccc1Cl (centres undefined) | ?
Cc1sc2ncnc(SCC(=O)N3CCC(c4noc5ccc(F)cc45)CC3)c2c1C | -15.6%
CC(C)CCNc1ncnc2c1nnn2Cc1ccccc1Cl | -10.8%
O=C(CC1Nc2ccccc2NC1=O)c1ccccc1 (centres undefined) | ?

Further compounds follow:
structure | HPGD block
O=C1C=CC2C(c3ccc4c(c3)OCO4)CC1N2Cc1ccccc1 (centres undefined) | -5.1%
O=C(Nc1ccc(Br)c(C(F)(F)F)c1)c1ccccc1 | -14.8%
CCCCn1c(SCC(=O)Nc2cc(NC(=O)c3ccco3)ccc2C)nc2ccccc2c1=O | -25.4%
Cc1ccccc1OCC(=O)Nc1nc(C)c(C(=O)N(C)C)s1 | -1.5%
O=C(CN1C(=O)C2C3C=CC(C3)C2C1=O)Nc1ccc(S(=O)(=O)N2CCCCC2)cc1 (centres undefined) | -7.6%
CCS(CC)=NS(=O)(=O)c1ccc(NC(C)=O)cc1 | -9.8%
O=C(/C=C/c1ccccc1)Nc1ncn[nH]1 | -8.7%
CCn1c(SCC(=O)n2c(C)c(C)c3ccccc32)nnc1-c1ccco1 | -2.1%
CCCCNC(=O)c1ccc2c(c1)ncn2C1CCCCC1 | 22.4µM*
CC(=O)C1=C(C)N(CC2CC2)C(=O)N[C@H]1c1ccc(Br)cc1 | -3.5%&-8.9%
O=C(c1ccccc1)N1CCOC12CCN(c1ncc(C(F)(F)F)cc1Cl)CC2 | -4.9%
COc1cccc(NC(=O)CNC(=O)c2cccs2)c1 | -2.4%
O=C1C2CC=C(Cl)CC2C(=O)N1CC1OCCc2ccccc21 (centres undefined) | -19.7%
COC(=O)/C=C(\C)NC(=O)c1ccc(F)cc1 | -17.1%
CCCc1cc(=O)[nH]c(SCC(=O)N(C)CC(=O)Nc2ccccc2CC)n1 | -3.2%
Cc1ccc(CNC(=O)COC(=O)CSc2cc(C)c(Br)cc2C)cc1 | -25.3%
CCOc1ccc(NC(=O)CC2C(=O)N(c3ccccc3)C(=O)N2Cc2ccccn2)cc1 (centres undefined) | 1.6%
COc1cc(/C=N/NC(=O)C(=O)NCc2cccnc2)cc(OC)c1OC | -15.8%
COCc1nnc(NC(=O)c2ccccc2[N+](=O)[O-])s1 | -18.4%
O=C(Cn1cnc2ccccc2c1=O)OCC(=O)c1ccc2c(c1)OCCO2 | -1.4%
CCOC(=O)c1nn(-c2ccc(F)cc2)c2nc(CC(C)C)c(C#N)c(=O)n12 | 4.3%
COC(=O)c1cccc(NS(=O)(=O)c2ccc(NC(C)=O)cc2)c1C | -5.3%
CNC(=O)Nc1cccc(C(F)(F)F)c1 | -9.7%
CC1(C)OC(=O)N(c2ccccc2)C12C=Cc1c(ccc3ccccc13)O2 (centres undefined) | -16.4%
COC(=O)c1cc(Br)c(=O)n(CCN2CCCC2)c1 | -0.3%
COc1cc(NC(=O)Cc2cccs2)cc(OC)c1 | -8.9%
Cc1cnnn1-c1ccc(C(=O)CCl)cc1 | ?
CC1CN(C(=O)CCc2ccccc2)C(C)CN1C(=O)CCc1ccccc1 (centres undefined) | -4.9%
COc1ccc2c(CC(=O)N3CCc4ccccc43)coc2c1 | -16.2%
CCOC(=O)C1CN(S(=O)(=O)c2ccc(OC)cc2)c2cc(CC(=O)OC)ccc2O1 (centres undefined) | -12.2%
COc1cccc(C(=O)NCc2n[nH]c(=S)n2-c2cccc(C)c2)c1 | -4.6%
S=C(Nc1ccc(Cl)cc1)c1nc2ccccc2[nH]1 | -13.4%
O=C1CC(c2ccc(Cl)cc2)n2nc(N3C(=O)c4ccccc4C3=O)nc2N1 (centres undefined) | -24.1%
O=C(c1ccccc1S(=O)(=O)NCc1ccccc1)N1CCCC1 | -5.9%
Cc1c(C(=O)N2CCc3ccccc3C2)oc2ccc(S(=O)(=O)N3CC(C)CC(C)C3)cc12 (centres undefined) | -14.6%
CCCCn1c(=S)[nH]c2ccccc2c1=O | -2.9%
COCC(=O)Nc1ccc([N+](=O)[O-])cc1OC | -5.8%
COc1cccc(C(c2sc3nc(C)nn3c2O)N2CCC3(CC2)OCCO3)c1 (centres undefined) | -11.4%
COc1cccc(N2C(=O)C3CC=C(Cl)CC3C2=O)c1 (centres undefined) | -3.5%
O=C(Cc1c(O)c2ccccc2[nH]c1=O)NCc1ccc(F)cc1 | -16.0%
Cc1c(F)cccc1NC(=O)CCC(=O)O | 0.5%
NC(CCCP(=O)(O)O)C(=O)O (centres undefined) | -9.9%
Cc1ccccc1-c1cc(-c2ccccc2O)n[nH]1 | ?
CCN1C(=O)C(O)(CC(=O)c2ccccn2)c2ccccc21 (centres undefined) | -3.0%
O=C(COc1ccccc1)N1c2ccccc2Sc2ccccc21 | -20.4%
COc1cccc(C2CC(c3cccc(Br)c3)n3nc(N)nc3N2)c1 (centres undefined) | -13.0%
COc1ccc2[nH]cc(CCN3C(=O)CCC3=O)c2c1 | -15.4%
CCOc1ccc(OCC)c(NC(=O)C2CCCN(c3ncccn3)C2)c1 (centres undefined) | -5.3%
Cc1cc(Nc2ncc(Cl)cc2Cl)n[nH]1 | -7.8%
CCCc1nc2scc(-c3ccc(C)cc3)c2c(=O)n1N | -6.1%
CCCCCC(=O)Nc1cccc(-c2nc3ncccc3o2)c1 | ?
O=C(CN1C(=O)c2ccccc2C1=O)OC(C(=O)c1ccc(Cl)cc1)c1ccccc1 (centres undefined) | -1.3%
Cc1ccc(C(=O)NC(=S)NCC2CCCO2)cc1Br (centres undefined) | -10.6%
O=C1c2ccsc2SCCN1Cc1ccc(Cl)cc1Cl | 2.8%
O=C(COC(=O)c1cc([N+](=O)[O-])ccc1NCc1ccccc1)NC1CCCc2ccccc21 (centres undefined) | -9.9%
Cc1noc(C)c1COc1ccc(C(=O)OC(C)C(=O)Nc2ccc(S(=O)(=O)N3CCOCC3)cc2)cc1 (centres undefined) | 2.4%
Cc1cc(C)nc(NC(=O)c2c(-c3ccccc3Cl)noc2C)n1 | -10.2%
CCC1=NC(c2ccccc2Cl)N(O)C1(C)C (centres undefined) | -1.3%
COc1cccc(NC2=Nc3cccc4cccc2c34)c1 | -27.3%
O=C(c1cccc(S(=O)(=O)N2CCCC2)c1)N1CCN(c2ncccn2)CC1 | -10.6%

(list continues)
structure | HPGD block
Cc1cc(Cl)c(S(=O)(=O)N2CCN(c3ccccc3)CC2)cc1OCC(N)=O | -12.5%
O=C(CN1CCCC1)Nc1ccccc1Cl | ?
C=CCNC(=O)/C(C#N)=C/c1ccccc1[N+](=O)[O-] | -23.6%
CCN(CC)Cc1ccccc1Sc1ccccc1 | -3.1%
C=CCNC(=O)/C(C#N)=C/c1ccc(OS(=O)(=O)c2ccc(C)cc2)c(OC)c1 | 28.2µM*
CC1(C)CC(=O)C=C(N=CC2=C(O)CC(C)(C)CC2=O)C1 | -13.7%
Cc1ccc(S(=O)(=O)Nc2ccncc2)c(C)c1N(C)S(=O)(=O)c1ccc(Cl)cc1 | -2.0%
CN(C)c1cccc(NC2=CC(=[N+]3CCOCC3)CC(C)(C)C2)c1 | ?
Cc1ccccc1Nc1oc(-c2ccccc2)nc1CCc1ccccc1 | -5.9%
C[C@@H]1C(c2ccc(F)cc2)=NN(c2ccccc2)[C@H]1C(=O)N1CCOC1=O | ?
Cn1c(CNc2nc(-c3ccccc3)cs2)nnc1SCC(=O)N1CCc2ccccc21 | -6.4%
CCCn1c(SCC(=O)Nc2ccccc2C(=O)OC)nc2c1c(=O)n(C)c(=O)n2C | -6.0%
Cc1ccc(-c2nnn(CC(=O)N(Cc3ccco3)C(C(=O)NC(C)(C)C)c3cccs3)n2)o1 (centres undefined) | -2.6%
CCOc1ccc(-n2c(SCC(=O)Nc3ccc(OC)cc3OC)nc3c(c2=O)SCC3)cc1 | -13.1%
COc1ccc(S(=O)(=O)N2N=C(C)Oc3ccccc3C2=O)cc1 | 0.0%

Structural class: those above containing a CF3 group (three)
structure | HPGD block
O=C(Nc1ccc(Br)c(C(F)(F)F)c1)c1ccccc1 | -14.8%
O=C(c1ccccc1)N1CCOC12CCN(c1ncc(C(F)(F)F)cc1Cl)CC2 | -4.9%
CNC(=O)Nc1cccc(C(F)(F)F)c1 | -9.7%

The list continues.
structure | HPGD block
O=C(c1ccccc1)N1CCn2c(nc3ccccc32)C1 | -16.5%
Cc1cc(/C=N\NC(=O)CC(=O)NC2CCCCC2)c(C)n1-c1cccc(Cl)c1Cl | -5.8%
CC1=CCC2C(=O)N(c3ccccc3OC(=O)c3ccccc3F)C(=O)C2C1 (centres undefined) | -10.9%
CCCCCC(=O)OC(CN1CCCCC1)CN1CCCC1=O (centres undefined) | -16.6%
CN(C)Cc1c(O)ccc2oc(Cc3ccccc3)cc12 | -15.2%
O=C(COc1ccccc1-c1ccccc1)Nc1ccc(S(=O)(=O)NCc2ccco2)cc1 | -10.0%
CC(=O)OC[C@@]1(O)C[C@]23CCC4c5ccoc5CC[C@@]4(C)C2CCC1C3 (some centres undefined) | -1.6%
CCOC(=O)Nc1cc(C)c(Cl)cc1OC | -27.9%
COc1cc(-c2nnc(SCC#CCO)o2)cc(OC)c1OC | -15.4%
O=C(N/N=C1\CC2CC=CC12)c1ccc(COc2ccccc2)cc1 (centres undefined) | 22.4µM*
C1CCC(C23CC4CC(CC(C4)C2)C3)NC1 (centres undefined) | 3.0%
Cn1c(=O)c2c(SCC(=O)N3CCOCC3)nc(CC(C)(C)C)nc2n(C)c1=O | -7.0%
Cc1cc(=O)n2c(c1C#N)SC1CCCCC12O (centres undefined) | -7.4%
COc1ccc(/C=N/c2sc3c(c2C#N)CCN(Cc2ccccc2)C3)c(O)c1 | -9.4%
CCOC(=O)c1c(C)cccc1OCC(N)=O | -8.6%
COc1ccc(-c2noc(Cc3ccccc3OC)n2)cc1 | -16.1%
Cc1ccc(C(C(=O)NC2CCCCC2)N(C(=O)c2csnn2)C2CC2)o1 (centres undefined) | -6.3%
Cc1ccc(C)c(Nc2nc3c(S(=O)(=O)c4ccccc4)nnn3c3ccccc23)c1 | ?
N#C/C(=C/N1CCOCC1)c1ccccc1 | -30.0%
C[C@H](NC(=O)c1ccc(Cl)c(Cl)c1)c1ccc(-c2ccccc2)cc1 | -9.8%
COCCn1nnnc1C(c1ccc2ncccc2c1)N1CCN(c2ccccc2F)CC1 (centres undefined) | -5.1%
COc1ccccc1CNC(=O)C1CCCN(S(C)(=O)=O)C1 (centres undefined) | -6.4%
Cc1noc(C)c1S(=O)(=O)N1CCC(C(=O)N2CCN(C(=O)c3ccco3)CC2)CC1 | -0.6%
CCCS(=O)(=O)c1c(S(=O)(=O)CCC)c2c(N)cccn2c1C(=O)c1ccc(F)cc1 | -11.8%
O=C(COC(=O)c1ccccn1)NCc1ccccc1Cl | -9.4%
CCN(CC)S(=O)(=O)c1ccc(N2CCN(S(=O)(=O)c3ccc4c(c3)OCCO4)CC2)nc1 | 18.0%
CCC1CCCCN1CCCNC(=O)c1ccc2c(=O)n(Cc3ccc(OC)cc3)c(=O)[nH]c2c1 (centres undefined) | -6.7%
COc1ccc(/C=N/NC(=O)C2c3ccccc3-c3ccccc32)cc1 | -7.1%
O=S(=O)(Cc1ccccc1)c1nnnn1C1CCCCC1 | -1.0%
CC(=O)NCCCc1nc2ccccc2n1Cc1ccccc1C | -3.5%
COc1cc(CC(NC(C)=O)C(=O)NC2CCN(c3c(Cc4ccccc4)c(C)nc4ncnn34)CC2)cc(OC)c1 (centres undefined) | -16.4%

Some of the compounds tested, so the mix of outcomes need not match the whole.
